Source: PubChem (several laboratories)
Beta apoptosis: inhibitors of cytokine-induced beta cell apoptosis, primary screen, luminescence | INS-1E cytokine-induced death, ATP luminescence, 48 h; percent of positive-control rescue, neutral wells zero | actives 0.8% (n = 300,000) | protection from apoptosis, % (no concentration beside the values);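 active = all replicates at 75% or more, or half of them and the mean; inconclusive = half reach 75% but not the mean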;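 also: 0% = cytokine-treated negative control wells and 100% = positive control rescue; higher means more ATP so stronger rescue from cytokine killing; wells of about 40 µL received 100 nL stock; the first replicate is given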
Calb FLC: C. albicans growth inhibition with fluconazole, primary screen, CaCi-2 strain, Alamar Blue fluorescence; C. albicans CaCi-2 (fluconazole-resistant clinical isolate) + fluconazole, 48 h; growth inhibition, % (no concentration beside the values); actives 0.57% (n = 300,000); AID 1979, 2009;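 active = most replicates above 75%; inconclusive = exactly half above 75%; inactive = most below 75%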;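 also: all wells also contain fluconazole at 8 µg/ml as a sub-toxic cotreatment; 0% = median of DMSO wells and 100% = median of geldanamycin control wells; wells of about 8 µL received 7.5 nL stock; the first replicate is given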
UCH37 inh: inhibitors of human UCH37 deubiquitinase, primary screen, biochemical, Ub-AMC cleavage, fluorescence; Ubiquitin carboxyl-terminal hydrolase isozyme L5 (Homo sapiens), Q9Y5K5; actives 0.33% (n = 330,000); purified proteasome/UCH37; inhibition, % (concentration not given with the values);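 active = mean of two replicates above 20%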;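 also: 0% = compound-free wells with enzyme and 100% = wells lacking proteasome; stock transfer was 100 nL into about 20 µL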
Target sequence (Q9Y5K5 whole entry, looked up): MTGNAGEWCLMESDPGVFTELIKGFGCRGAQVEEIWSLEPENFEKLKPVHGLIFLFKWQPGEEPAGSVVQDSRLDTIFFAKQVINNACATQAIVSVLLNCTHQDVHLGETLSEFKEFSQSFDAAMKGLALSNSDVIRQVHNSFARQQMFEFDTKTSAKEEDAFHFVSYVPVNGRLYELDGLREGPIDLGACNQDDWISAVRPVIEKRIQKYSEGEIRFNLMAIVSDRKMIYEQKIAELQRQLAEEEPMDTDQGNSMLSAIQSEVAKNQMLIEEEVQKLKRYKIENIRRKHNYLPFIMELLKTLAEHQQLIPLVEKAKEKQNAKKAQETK
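Material: human UCH37 enzyme supplied as purified proteasome complex / Amount: 0.15 nM proteasome as dispensed / Buffer or medium: pH 7.4 Tris-HCl (50 mM) with ovalbumin, ATP-MgCl2, DTT / Times: preincubation 30 min, reaction 25 min, room temperature / Technique: AMC fluorescence from Ub-AMC cleavage, excitation 355 nm, emission 460 nm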
RanGTP-Impb inh: inhibitors of RanGTP-importin-beta interaction, primary screen, biochemical, FRET, CFP-Ran, YFP-importin-beta, homogeneous; inhibition, % (test concentration not listed); AID 2216, 2009; Ran GTPase (GTP-bound) - importin-beta complex; actives 1.1% (n = 300,000); cell-free CFP-Ran/YFP-importin-beta FRET ratio;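 active = most replicates above 15%; inconclusive = exactly half above 15%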;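 also: 0% = DMSO wells and 100% = Ran loaded with GDP instead of GTP; wells of about 40 µL received 100 nL stock; the first replicate is given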
B2AR ag: beta2AR agonists driving receptor internalization, primary screen, cell-based, FAP fluorogen, flow cytometry. actives 0.43% (n = 340,000). response, % (test concentration not listed). Beta-2 adrenergic receptor (Homo sapiens), P07550. Am2.2-beta2AR cells; reference of the scale not given here. AID 504454, 2011;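 active = response above a set limit, near 3 SD of response in nonfluorescent compounds, cut at about 42% in these data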;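 also: stock transfer was 100 nL into about 11 µL; a reference agonist was the positive control; negative values mostly stem from fluorescent compounds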
Target sequence (P07550 whole entry, looked up): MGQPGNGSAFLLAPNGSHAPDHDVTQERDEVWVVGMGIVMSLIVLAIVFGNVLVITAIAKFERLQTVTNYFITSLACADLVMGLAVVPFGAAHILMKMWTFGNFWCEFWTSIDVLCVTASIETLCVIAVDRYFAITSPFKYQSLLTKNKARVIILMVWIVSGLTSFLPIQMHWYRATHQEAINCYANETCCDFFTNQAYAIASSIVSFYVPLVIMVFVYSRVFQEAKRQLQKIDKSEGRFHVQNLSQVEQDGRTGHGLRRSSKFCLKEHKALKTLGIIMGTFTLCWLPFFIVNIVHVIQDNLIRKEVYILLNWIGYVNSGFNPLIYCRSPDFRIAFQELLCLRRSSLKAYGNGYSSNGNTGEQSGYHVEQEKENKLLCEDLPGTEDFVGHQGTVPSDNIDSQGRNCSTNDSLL
LANA-H2B inh: blockers of LANA interaction with H2A/H2B – biochemical, FP readout, HTS, primary screen; cell-free LANA-H2A/H2B peptide, fluorescence polarization; inhibition, % (concentration not given with the values); actives 0.6% (n = 320,000); AID 2629, 2010; in the data active = inhibition mostly above about 10%, no sharp cut-off; inactive = mostly below about 6.7%;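 also: stock transfer was 7.5 nL into about 10 µL; 0% = median of vehicle wells and 100% = median of positive control wells; one replicate is shown; the record names a cut of 25% in any replicate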
T cruzi inh: inhibitors of intracellular T. cruzi growth, primary screen, luminescence, NIH3T3 host cells. T. cruzi beta-gal in NIH3T3, 90 h. inhibition, % (concentration not given with the values). actives 1.4% (n = 300,000). AID 1885, 2009;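 active = mean inhibition across valid replicates above about 55%, limit read from the data; inconclusive = mean below that limit but half or more replicates reach it; inactive = mean below it, under half of replicates reach it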;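 also: signal also drops with host cell toxicity which is not excluded here; 0% = plate median of DMSO wells and 100% = zero luminescence signal; higher percent means less beta-gal luminescence so fewer parasites; stock transfer was 50 nL into about 50 µL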
A1 inh: caspase 3/7 activation in MEF A1-2A-BIM cells, primary screen, A1 inhibitor project, cell-based, luminescence, HTS. Caspase-Glo 3/7 luminescence, 3 h; percent of clofoctol response, vehicle zero. caspase activation, % (no concentration beside the values). actives 0.066% (n = 330,000);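 active = over half of replicate activation scores above 10%, or exactly half above 10 with the replicate mean above 10; inconclusive = replicate mean below 10 yet half the replicates above 10; inactive = over half of replicates below 10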;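 also: wells of about 30 µL received 50 nL stock; many hits fall short of the cut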
* = called active by the depositor; ? = inconclusive; nt = no result given.

SMILES	Beta apoptosis	Calb FLC	UCH37 inh	RanGTP-Impb inh	B2AR ag	LANA-H2B inh	T cruzi inh	A1 inh
Cc1[nH]c2ccccc2c1C(=O)C(=O)N1CCN(c2ccccc2)CC1	nt	10	8.0	?	-14	-5.2	-2	0.4
O=C(O)C1=NOC(CNC(=O)c2ccccc2Cl)C1 (configuration not stated)	-4	-4	0.5	9.1	4	-7.3	-6	0.1
N#CC1=C(N)SC(N)=C(C#N)C1CCc1ccccc1	nt	-3	0.1	?	-68	-3.2	-20	-0.3
Cc1cc2n(n1)SC(Nc1ccccc1)N2 (configuration not stated)	-7	-7	-3.9	3.7	-5	-3.4	-11	-1.1
Cc1cc(C)c2c(N)c(C(=O)c3ccccc3)sc2n1	3	-4	-23	1.8	-16	-2.9	66*	-0.8
O=S(=O)(Nc1ncccn1)c1ccc(NC(=S)Nc2ccccc2Cl)cc1	-4	7	nt	5.3	1	0.7	-7	0.1
CN(Cc1cnccn1)Cc1nc(Cc2ccccc2Cl)no1	-1	-33	3.6	2.4	0	1.4	-2	-1.2
COc1ccc(OCc2cc(C(=O)O)c(C)o2)cc1	-4	-7	nt	-2.4	nt	9.3	-13	-6.4
C=C(C)Cn1c(SCC(=O)O)nc2c1c(=O)[nH]c(=O)n2C	1	-3	0.9	2.2	-8	11	-3	-0.1
Cc1ccc(C(=O)OCC(=O)N2CC(C)CC(C)C2)cc1S(=O)(=O)N1CCCCC1 (configuration not stated)	0	-2	1.3	2.4	6	-1.9	23	0.0
COc1ccccc1N(CC(=O)NC1CCCCC1)S(=O)(=O)c1cccs1	2	-1	1.3	3.4	-3	1.4	4	-0.2
CC(=O)C(Sc1ccc2nnc(-c3cccnc3)n2n1)C(C)=O	-6	2	2.2	0.3	4	-3.7	-4	0.4
C=CCNC(=O)C1CC(=O)N(c2ccc(Br)cc2)C1 (configuration not stated)	-5	13	1.2	-1.5	-5	1.9	-5	-0.1
Cc1cccc(NC(=O)CN2C(=O)N/C(=C/c3ccc(C)s3)C2=O)c1	-1	10	-1.0	-0.9	-29	-7.4	-2	-1.8
CC(=O)N1CCC(N2CCN(Cc3ccc(C)cc3)C(CCO)C2)CC1 (configuration not stated)	-2	-5	-1.1	2.5	1	77*	5	-0.4
O=c1[nH]c(S)c(/C=C2\C=Nc3ccccc32)s1	0	24	9.6	?	20	1.7	-7	0.3
CC(C)c1ccc(CN2CCSCC2)cc1	-5	3	-2.0	1.6	14	0.0	0	-0.5
Cc1ccc(-n2c([S-])c(C(=O)Nc3ccc(OC(F)F)cc3)[n+]3ccc(C(=O)NCCO)cc23)cc1C	-3	-9	2.1	7.5	19	-3.9	3	-0.6
CC(C)n1nnnc1SCC(=O)Nc1ccc2c(c1)OCO2	6	-3	4.7	6.2	-1	-2.5	1	0.1
CCCCCOC(=O)C1=C(C)Nc2nnnn2C1c1ccc(OC)c(OC)c1OC (configuration not stated)	1	10	4.7	9.6	-24	-0.7	15	0.5
Cn1c(COc2ccccc2)nnc1SCC(=O)c1cccc([N+](=O)[O-])c1	-5	33	2.9	?	-1	-2.3	12	-0.4
Cc1cc(C)cc(OCc2ccc(C(=O)NC3CCOC3=O)o2)c1 (configuration not stated)	-9	12	-3.5	-0.1	-7	1.5	2	0.5
C[C@H](CO)N1C[C@H](C)[C@@H](CN(C)Cc2ccc(Cl)c(Cl)c2)Oc2ccc(NC(=O)Cn3cnnn3)cc2C1=O	3	nt	1.3	nt	7	7.3	nt	0.9
CCCn1nnnc1NCc1ccc(C(C)C)cc1	3	-12	2.6	1.1	-6	-7.0	-3	0.8
O=C(CSc1nc(-c2ccccc2)c(-c2ccccc2)o1)Nc1nncs1	-6	7	0.2	-1.1	-7	-2.4	-13	1.6

The closing two records of the section before lead into the next.
SMILES	Beta apoptosis	Calb FLC	UCH37 inh	RanGTP-Impb inh	B2AR ag	LANA-H2B inh	T cruzi inh	A1 inh
CCCn1nnnc1NCc1ccc(C(C)C)cc1	3	-12	2.6	1.1	-6	-7.0	-3	0.8
O=C(CSc1nc(-c2ccccc2)c(-c2ccccc2)o1)Nc1nncs1	-6	7	0.2	-1.1	-7	-2.4	-13	1.6
CCCc1[nH]nc2c1C(c1cccc(OC)c1)C(C#N)=C(N)O2 (configuration not stated)	0	1	-0.4	-2.3	-3	6.1	7	0.5
COc1cccc(/C=C/C(=O)OCC(=O)N2CCN(c3ccccc3)CC2)c1	-2	nt	-11	nt	11	-0.2	nt	2.0
COc1cc(CNCCNC(=O)c2cccs2)cc(OC)c1OC	2	-11	-0.5	1.7	-3	1.6	-11	0.2
Brc1ccccc1-n1nnc(-c2ccnc3ccccc23)n1	9	-1	2.3	5.1	3	-3.2	-5	-0.9
Cc1cc2nncn2c2ccccc12	0	2	1.2	3.0	-3	0.2	6	0.7
CC1(C)OC(=O)N(c2ccccc2)C12C=Cc1cc(Br)ccc1O2 (configuration not stated)	5	-7	2.3	-2.5	5	-0.4	19	-0.3
O=C(O)c1ccccc1Nc1ccccc1	-4	nt	0.2	nt	-11	-4.7	nt	-0.5
COc1ccccc1NC(=O)CSc1nc(N)c(-c2ccccc2)c(=O)[nH]1	-1	4	-0.5	nt	2	-2.1	3	-1.1
CC12CN3CC(C)(CN(C1)C3c1ccc(Cl)cc1)C2 (configuration not stated)	-5	1	1.5	-1.1	-3	0.2	-26	0.9
COc1ccc(/C(CC2(O)C(=O)Nc3ccccc32)=N\O)cc1 (configuration not stated)	-3	-11	nt	-3.6	7	2.5	6	0.2
COc1cc(NS(=O)(=O)c2ccc(NS(=O)(=O)c3ccc(NC(C)=O)cc3)cc2)nc(OC)n1	-6	4	6.5	0.5	-2	0.1	-17	0.2
CN(C)c1nc(NCc2ccccc2)nc(N/N=C/c2cccc(Br)c2)n1	44	7	nt	4.0	-1	3.1	37	-0.1
COC(=O)c1ccc(C2/C(=C(/O)c3ccc4c(c3)CC(C)O4)C(=O)C(=O)N2CCN2CCOCC2)cc1 (configuration not stated)	-11	-8	11	-1.9	-5	3.7	-11	1.0
Cc1ccnc(NC(=O)CCC2COc3ccccc3O2)c1 (configuration not stated)	-6	-2	-0.5	-1.3	5	-4.2	-11	0.5
COc1ccccc1C(c1nnnn1CC1CCCO1)N1CCN(c2ccccc2)CC1 (configuration not stated)	-4	3	-0.8	-1.1	2	-5.7	3	-0.3
CCN(CC)C(=O)Cn1c(=O)n(CCCCCC(=O)Nc2ccccc2)c(=O)c2sccc21	-10	3	4.9	-5.2	-4	-7.2	4	1.1
COc1ccc(S(=O)(=O)N2CCCC(C(=O)N3CCOCC3)C2)cc1OC (configuration not stated)	0	8	3.2	?	-2	4.8	-9	-0.2
Cc1nc2cc(C(=O)NCc3cccnc3)ccc2n1-c1ccc(F)cc1F	1	-7	2.4	-2.7	4	-12	18	1.5
O=C(COC(=O)c1ccc(S(=O)(=O)N2CCCC2)cc1)NCc1ccco1	-14	1	-0.3	1.0	0	-4.1	-3	-0.6
COC(=O)CCNC(=O)c1ccc2nc(Cc3ccc(OC)c(OC)c3)oc2c1	-9	2	0.2	?	-1	-1.0	-11	-0.2
O=C(c1ccc(S(=O)(=O)N2CCOCC2)cc1)N1CCCc2ccccc21	nt	-7	2.1	4.0	6	-4.6	-5	0.8
Cc1ccc(Cl)cc1NC(=O)C1CC1c1ccccc1 (configuration not stated)	nt	9	3.6	1.5	1	0.9	-4	-0.3
O=[N+]([O-])c1ccc(OCCCn2cncn2)cc1	-1	6	4.4	0.9	-3	11	-6	0.5
CSCC[C@H](NC(=O)C1=NN(c2c(F)c(F)cc(F)c2F)C(=O)CC1)c1nc2ccccc2[nH]1	-7	7	2.1	5.3	-9	2.6	-6	1.7
CCN(C(=O)COC(=O)C1CCN(S(=O)(=O)c2ccc3c(c2)OCCO3)CC1)C1CCS(=O)(=O)C1 (configuration not stated)	-5	-8	0.3	-1.5	-4	2.4	4	-0.7

Entries listed so far that contain an NH in an aromatic ring (6):
SMILES	Beta apoptosis	Calb FLC	UCH37 inh	RanGTP-Impb inh	B2AR ag	LANA-H2B inh	T cruzi inh	A1 inh
Cc1[nH]c2ccccc2c1C(=O)C(=O)N1CCN(c2ccccc2)CC1	nt	10	8.0	?	-14	-5.2	-2	0.4
C=C(C)Cn1c(SCC(=O)O)nc2c1c(=O)[nH]c(=O)n2C	1	-3	0.9	2.2	-8	11	-3	-0.1
O=c1[nH]c(S)c(/C=C2\C=Nc3ccccc32)s1	0	24	9.6	?	20	1.7	-7	0.3
CCCc1[nH]nc2c1C(c1cccc(OC)c1)C(C#N)=C(N)O2 (configuration not stated)	0	1	-0.4	-2.3	-3	6.1	7	0.5
COc1ccccc1NC(=O)CSc1nc(N)c(-c2ccccc2)c(=O)[nH]1	-1	4	-0.5	nt	2	-2.1	3	-1.1
CSCC[C@H](NC(=O)C1=NN(c2c(F)c(F)cc(F)c2F)C(=O)CC1)c1nc2ccccc2[nH]1	-7	7	2.1	5.3	-9	2.6	-6	1.7

Continued:
SMILES	Beta apoptosis	Calb FLC	UCH37 inh	RanGTP-Impb inh	B2AR ag	LANA-H2B inh	T cruzi inh	A1 inh
Cc1nn(C)cc1/C=N\NC(=O)c1ccc(Cn2cc(Cl)cn2)cc1	7	-6	nt	1.7	-3	4.4	5	0.0
COc1ccccc1NCC(=O)NC(=O)NC1CCCCC1	-2	nt	3.2	nt	4	2.4	nt	-0.8
Cc1ccc([N+](=O)[O-])c(C)[n+]1C	5	9	2.5	nt	3	1.1	-8	0.9
N#Cc1ccsc1NC(=O)c1ccc(Cl)c([N+](=O)[O-])c1	25	-2	nt	-2.9	16	-0.4	4	-8.2
CCCc1cc(=O)n2[nH]c(SCc3ccc(Cl)cc3)nc2n1	-10	39	0.4	0.1	5	1.4	0	0.5
Nc1ccc(Sc2nc3ccccc3[nH]2)cc1	2	-6	-2.1	-11	-5	-3.0	-15	-1.5
Nc1c(Cl)cc(-c2csc(N3CCCC3c3nc4cc(Cl)c(N5CCCCC5)cc4n3CCOCCO)n2)cc1Cl (configuration not stated)	0	-3	1.7	0.2	1	1.6	19	-0.1
Cc1ccc(-c2nc(CS(=O)(=O)CC(=O)NC3CCCCC3C)c(C)o2)cc1 (configuration not stated)	nt	-1	3.3	-3.3	4	-3.3	7	0.5
O=C(NC1CCCc2c1cnn2-c1ccc(F)cc1F)c1ccccc1N1CCOCC1 (configuration not stated)	0	-2	-0.3	3.6	2	-1.9	-12	-1.0
N#Cc1ccccc1OCC(=O)NCC(c1cccs1)N1CCOCC1 (configuration not stated)	-9	8	2.2	2.1	-19	1.7	14	-0.3
Cc1nnc(SCCC(=O)Nc2ccccc2Cl)o1	-3	1	1.5	-0.6	1	10.0	-6	-0.1
CC1=C(C(=O)Nc2cccc(C(=O)NC(C)C)c2)SCCO1	nt	-8	-1.5	1.9	-4	-6.0	-4	0.4

Random draw from the library. Share with any hit: about 4.3%.
